PABP polyA inh – PABP poly(A) RNA binding inhibitors, primary screen, biochemical, fluorescence polarization, uHTS; Polyadenylate-binding protein 1 (Homo sapiens), P11940; inhibition, % at 35 µM; actives 1% (n = 290,000);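 active means 50% or more with normal probe brightness, or confirmed in later tests; inconclusive means above 50% with abnormal brightness, or retests that disagree; inactive means below 50% or failed in later tests; about a fifth of its hits are not listed in these tables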;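 further: calls also rest on retests at 20 µM and on dose response follow-up; controls were probe without protein and protein plus probe with vehicle; some compounds called inactive have numbers as strong as hits; many hits fall short of the cut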
CSC inhib – cancer stem cell viability inhibitors, primary screen, luminescence. inhibition, % at 7.5 µM. cancer stem cell-like cells viability. actives 1.1% (n = 300,000);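 active means mean at 75% or more and at least half the replicates too; inconclusive means mean and replicates disagree; tested in HMLE shEcad cells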;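 further: 0% = median of negative and 100% = median of positive control wells; the first replicate is given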
Yeast UUG start – modulators of yeast start codon fidelity, primary screen, whole organism, S. cerevisiae, single point, plate reader; AID 602363, 2012; activity score, % at 18.7 µM; S. cerevisiae UUG-firefly luciferase reporter, luminescence/redox ratio; actives 0.13% (n = 350,000);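 active means replicate mean at a twofold rise or more, about +100% in these data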;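 further: firefly luciferase made from a UUG start codon reports start codon fidelity; reporter light over untreated wells divided by growth signal over untreated wells; some hits fall short of that in this replicate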
MT1-MMP act inh – blockers of MT1-MMP proenzyme processing, primary screen, HT1080 RFP-PRO-GFP cells, GFP/RFP fluorescence. Matrix metalloproteinase-14 (Homo sapiens), P50281. GFP/RFP ratio fluorescence, overnight; percent of plate control window, DMSO zero. GFP/RFP ratio change, % at 20 µM. actives 0.061% (n = 360,000);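 active means GFP/RFP ratio change of at least 30% with cell ATP level not reduced by more than half and red fluorescence within 50% of control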; further: strong numbers were not always called active
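Assay system: HT1080 RFP-PRO-GFP cells. Benchmarks: DMSO vehicle wells and RFP-L50D-GFP reporter cell wells. Times: overnight cell settling, then overnight compound exposure, 37 °C, 5% CO2. Compound: 20 µM single dose, 1% DMSO. Read-out basis: GFP/RFP fluorescence ratio.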
eIF4H inh – human eIF4H binding inhibitors, primary screen, translation initiation inhibitor project, biochemical, uHTS, fluorescence polarization; eIF4H fluorescence polarization binding assay; actives 0.94% (n = 290,000); inhibition, % at 35 µM;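 active means 50% or more with normal probe brightness, or confirmed in later tests; inconclusive means above 50% with abnormal brightness, or retests that disagree; inactive means below 50% or failed in later tests; about a fifth of its hits are not listed in these tables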;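 further: calls also rest on retests at 20 µM and on dose response follow-up; 0% = protein and probe with vehicle and 100% = probe without protein; strong numbers were not always called active; many hits fall short of the cut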
Env fusion inh – inhibitors of HIV-1 Env-driven cell-cell fusion, primary screen, HeLa-JRFL effector, CEM21 target cells, luciferase; inhibition, % at 12.3 µM; actives 1.1% (n = 360,000); AID 651610, 2012;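 active means mean replicate inhibition score of at least 50 and every replicate individually at or above 50; inconclusive means only one of the two criteria met; inactive means mean below 50 and not all replicates reaching 50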;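 further: 0% = plate neutral controls and 100% = maraviroc near 300 nM; one replicate is shown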
Rce1 inhib – yeast Rce1p protease inhibitors, primary screen, biochemical, fluorescence, cell-free homogeneous; AID 2563, 2010; calls only; actives 0.27% (n = 290,000); yeast membranes, quenched prenylated peptide cleavage fluorescence; CAAX prenyl protease 2 (Saccharomyces cerevisiae (strain ATCC 204508 / S288c)), Q03530;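 active means fall in fluorescence gain of 50% or more versus controls, with final raw signal at or below 3038400; inconclusive means same 50% fall but final raw signal above 3038400; inactive means fall in fluorescence gain under 50%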;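 further: plate controls were neutral control wells for no effect and wells lacking membranes for full effect; tested at 10 µM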
Target sequence (Q03530 whole entry, looked up): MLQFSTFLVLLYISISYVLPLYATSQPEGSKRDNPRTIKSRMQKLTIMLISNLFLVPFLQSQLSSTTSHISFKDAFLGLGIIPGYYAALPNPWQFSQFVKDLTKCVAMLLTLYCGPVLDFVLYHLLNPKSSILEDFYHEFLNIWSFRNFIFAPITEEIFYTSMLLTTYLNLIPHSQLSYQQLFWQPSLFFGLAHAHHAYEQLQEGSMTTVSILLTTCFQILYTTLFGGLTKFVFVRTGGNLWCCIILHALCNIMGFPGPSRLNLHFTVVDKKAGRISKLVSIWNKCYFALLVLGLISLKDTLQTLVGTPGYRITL
eIF4H inh retest – recorded beside eIF4H inh, whose call it bears; inhibition, %; compound at 20 µM; confirmation average;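 mean of two retest wells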
PABP polyA inh retest – recorded beside PABP polyA inh, whose call it bears; inhibition, %; compound at 20 µM; confirmation repeats;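 mean of two retest wells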
MT1-MMP act inh RFP – also measured in MT1-MMP act inh; calls as there; RFP signal change, %; measured here: RFP expression control read;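 0 = vehicle wells; hits needed this value within 50% of zero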
* hit, by the source's call; i = inactive; ? = inconclusive; . = not tested or not shown.

The opening two records as a preview:
SMILES | PABP polyA inh | CSC inhib | Yeast UUG start | MT1-MMP act inh | MT1-MMP act inh RFP | eIF4H inh | Env fusion inh | Rce1 inhib | others
O=C(CSc1ccc(Cl)cc1)N1CCN(c2ncc(C(F)(F)F)cc2Cl)CC1 | -1 | 42 | -7 | 5 | 1 | 9 | 22 | i
CN(c1ccc(OCC(=O)OCC(=O)NC2CCCC2)cc1)S(=O)(=O)c1ccc2ccccc2c1 | ? | 1 | . | 1 | 0 | 14 | -4 | i

Results, repeating the preview:
SMILES | PABP polyA inh | CSC inhib | Yeast UUG start | MT1-MMP act inh | MT1-MMP act inh RFP | eIF4H inh | Env fusion inh | Rce1 inhib | others
O=C(CSc1ccc(Cl)cc1)N1CCN(c2ncc(C(F)(F)F)cc2Cl)CC1 | -1 | 42 | -7 | 5 | 1 | 9 | 22 | i
CN(c1ccc(OCC(=O)OCC(=O)NC2CCCC2)cc1)S(=O)(=O)c1ccc2ccccc2c1 | ? | 1 | . | 1 | 0 | 14 | -4 | i
Cc1cc(Br)ccc1NC(=O)CNC(=O)Cn1ncc(Cl)c(Cl)c1=O | -6 | 83* | . | -29 | -41 | 4 | -126 | .
COc1ccc(N2CCN(C(=O)c3ccccc3N(C)S(=O)(=O)c3ccc(C)cc3)CC2)cc1 | -1 | . | 14 | 1 | -4 | -9 | 0 | i
CC(C)CNC(=O)COC(=O)c1cc(Cl)cc(Cl)c1N | -5 | 8 | 3 | -4 | 5 | -1 | -24 | .
CC(C)C[C@@H](C(=O)N[C@@H](C(=O)O)c1ccccc1)N1C(=O)N2CCc3c([nH]c4ccccc34)[C@@]2(C)C1=O | 5 | -7 | 2 | 2 | 2 | 3 | . | i
COc1ccc(CC(=O)NNC(=O)c2ccncc2)cc1 | 8 | -18 | 8 | -1 | 2 | -11 | 4 | i
Cn1c(-c2ccc(Cl)cc2)ccc(C#N)c1=O | 8 | -31 | . | -3 | -9 | -2 | 75* | i
CC(=O)C1=C(O)C(=O)N(c2cccnc2)C1c1ccc([N+](=O)[O-])cc1 (centres undefined) | 0 | -15 | . | . | . | 4 | 15 | i
Cc1ccc(C(C(=O)NC2CCCC2)N(Cc2cccnc2)C(=O)c2snc(C(N)=O)c2N)o1 (centres undefined) | -3 | -7 | -7 | 16 | -1 | -4 | -21 | i
Cc1ccc(NC(=O)N(Cc2cccnc2)Cc2ccco2)cc1C | 7 | 0 | -17 | 4 | 6 | 11 | 24 | i
COC(=O)CSc1nnc(-c2ccc(S(=O)(=O)N3CCC(C)CC3)cc2)o1 | -3 | 2 | -22 | -1 | 1 | -11 | 0 | .
CCOc1ccccc1NC(=S)NC(=O)CCCOc1ccc(Cl)cc1Cl | -7 | 42 | -12 | 6 | -1 | -16 | . | i
Cc1cc(N2CCN(S(=O)(=O)c3ccc(C)c(C)c3)CC2)c2ccccc2n1 | -9 | -3 | 8 | -8 | -12 | -2 | . | i
N=c1n(CCO)c2ccccc2n1Cc1ccccc1Cl | 4 | 11 | -11 | -12 | 0 | -2 | -32 | i
Cc1ccc([C@H]2C[C@@H](n3cc(C4CC4)nn3)[C@H](O)CN2Cc2cccs2)cc1 | . | . | -13 | 1 | 3 | . | -66 | .
CCCOc1cccc(C2C(C(=O)c3ccco3)=C(O)C(=O)N2c2nnc(C)s2)c1 (centres undefined) | ? | -10 | -34 | -22 | 2 | ? | -11 | .
C#CCOC(=O)CCCN1C(=O)c2cccc3cccc(c23)C1=O | . | . | -14 | -9 | -1 | . | 1 | .
CCOC(=O)CSc1nnc(CSc2nc3sc4c(c3c(=O)[nH]2)CCC4)n1-c1ccccc1 | 6 | 15 | -7 | 1 | 0 | -4 | -56 | i
CCOc1ccccc1Nc1nc2ccccc2n1C(C)C | -14 | -11 | -4 | -2 | -5 | -2 | -5 | i
O=C(CSc1nnc2ccccn12)NNC(=O)c1cccc(Cl)c1 | . | -20 | -21 | 1 | 6 | . | 1 | .
CC1CCCN(c2nc3c(c(=O)n(C)c(=O)n3C)n2CCSc2nc3ccccc3s2)C1 (centres undefined) | -10 | -8 | -7 | -2 | -7 | 8 | ? | i
COc1cccc(C(=O)Nc2nnc(S(=O)(=O)N(C)c3ccccc3)s2)c1 | . | 6 | -15 | 4 | -4 | . | -4 | i
Cc1ccc(COc2cccc(/C=N/NC(=O)c3nnn(-c4nonc4N)c3C)c2)cc1 | 4 | 38 | -21 | 0 | -3 | -10 | 1 | i
CC(=O)NCC(=O)N(c1c(C)n(C)n(-c2ccccc2)c1=O)C1(C(=O)NC2CCCC2)CCCCC1 | -6 | 4 | -17 | 0 | 6 | -6 | . | i
CSc1nsc(SCC(=O)Nc2ccccc2C(N)=O)n1 | 2 | -11 | -16 | -1 | 0 | 88 | 12 | i | eIF4H inh retest=4;PABP polyA inh retest=4
CCN(CC)CCCNC(=O)c1cc(-c2ccc3c(c2)OCO3)on1 | 7 | -3 | -30 | -6 | -3 | 10 | 1 | i
CCOC(=O)C1(Cc2ccccc2)CCN(Cc2ccon2)CC1 | 0 | -1 | . | 3 | 0 | 5 | -17 | i
OC(CNCCc1ccc(C(F)(F)F)cc1)COc1cccc2ccccc12 (centres undefined) | 5 | 96* | . | 1 | 3 | -3 | 14 | i
O=C(NCCCCCNC(=O)c1ccco1)c1ccco1 | -11 | -7 | -5 | 2 | 5 | 2 | -57 | i
Cc1ccc(S(=O)(=O)N(C)C)cc1NC(=O)COC(=O)Cc1ccc(Br)cc1 | -8 | 0 | . | -3 | 0 | -9 | 7 | i
Cc1ccc(C(=O)NC(=S)NNC(=O)c2ccccc2)cc1 | 10 | -15 | -26 | 5 | 5 | 11 | 1 | i
CC(C)c1ccc(S(=O)(=O)N2CCN(C(=O)c3cc([N+](=O)[O-])ccc3N3CCOCC3)CC2)cc1 | -11 | -16 | 11 | -4 | -1 | -4 | . | i
CCOc1ccc(C(=O)NCC(=O)OCc2cc([N+](=O)[O-])cc3c2OCOC3)cc1OCC | 3 | 9 | -15 | 0 | 0 | -1 | -1 | .
Cc1nn(-c2ccccc2)c(N2CCCC2)c1/C=N/O | -11 | -14 | -18 | -6 | -5 | -10 | . | i
O=C(Nc1ccc2ncccc2c1)Nc1ccc2ncccc2c1 | -5 | -5 | -9 | 6 | -5 | 5 | -4 | i
COc1ccc(OC)c(CNC(=O)COc2cc(=O)n(C)c3ccccc23)c1 | . | . | -1 | 4 | 6 | . | -13 | i
Cc1cccc(N(CC(=O)NCc2ccc3c(c2)OCO3)C(=O)CCC(=O)Nc2ccccn2)c1C | -7 | . | 3 | 2 | -10 | 1 | . | i
CCc1ccc2[nH]c(=O)c(CN(Cc3ccco3)S(=O)(=O)c3ccc4c(c3)OCCO4)cc2c1 | -11 | 6 | -5 | -8 | -6 | -3 | 4 | i
O=C(NCCc1ccc(Cl)cc1)C1CCN(S(=O)(=O)c2cccc3nonc23)CC1 | 27 | 6 | 1 | 2 | -2 | -2 | . | i
CCOC(=O)c1nc(C)sc1-c1ccnn1S(=O)(=O)c1ccc(C)cc1 | 0 | . | -7 | 2 | 0 | 0 | 5 | i
Cc1ccc(NS(=O)(=O)c2cc(OCC(N)=O)c(C)cc2Cl)cc1 | -8 | 15 | . | 2 | 1 | -2 | 24 | i
Cc1ccc(C(=O)N2CCN(c3ccc(NC(=O)c4cccs4)cc3)CC2)cc1 | -1 | 7 | -1 | 0 | -10 | 3 | . | i
CC[N+]1(C)[C@@H]2CC[C@H]1CC(OC(=O)[C@H]1CCC(C(=O)OC3C[C@H]4CC[C@@H](C3)[N+]4(C)CC)(c3ccccc3)c3ccccc31)C2 (some centres undefined) | . | -8 | -8 | 12 | -3 | . | -95 | .
CC(Sc1ccc(S(=O)(=O)N2CCN(C)CC2)cn1)C(=O)Nc1cccc(Cl)c1Cl (centres undefined) | . | . | -7 | 1 | -6 | . | 10 | .
COc1cc(NC2c3ccccc3C(=O)N2Cc2ccc3c(c2)OCO3)cc(OC)c1 (centres undefined) | -8 | 1 | -12 | -5 | -3 | 4 | 54 | i
CCOC(=O)c1cnc(SCC(=O)c2ccc(Cl)cc2)nc1N | -2 | -1 | -11 | -4 | 0 | -6 | . | i
O=C(c1ccc2c(c1)OCO2)C1CCCN(Cc2cn[nH]c2-c2cccc(F)c2)C1 (centres undefined) | 3 | 7 | . | 1 | -2 | -5 | 11 | i
O=S(=O)(NCCN1CCOCC1)c1ccc(F)c(Cl)c1 | 1 | -10 | -7 | -2 | -1 | 12 | -7 | i
CC1(C)CC(NC(=O)c2cccc(F)c2)CC(C)(C)N1 | 10 | -13 | -22 | -2 | -4 | -4 | 1 | i
CC1(C)Cc2ccccc2-c2nc(NCCCO)[nH]c(=O)c21 | 5 | -7 | -7 | 7 | 0 | -3 | -2 | ?
CC(C)(C)n1ncc2c(=O)n(CC(=O)N3CCCc4ccccc43)cnc21 | 3 | -3 | 0 | 0 | -3 | -5 | . | i
c1cncc(C(c2nnnn2C2CCCCC2)N2CCN3CCCC3C2)c1 (centres undefined) | -8 | . | -10 | -7 | -3 | 0 | -36 | .
Cc1ccc(NC(=O)COC(=O)/C=C/c2cccs2)cc1 | -2 | 11 | . | -2 | 3 | 2 | -15 | i
CCN(CC(=O)Nc1ccc(S(=O)(=O)N2CCCC2)cc1)Cc1ccccc1 | . | 1 | . | -1 | 2 | . | . | i
CCN(CC)C(=O)c1ccc(-c2cccs2)s1 | 1 | 4 | . | -3 | -3 | -4 | -31 | i
O=C(c1cc(COc2ccc(F)cc2F)on1)N1CCCC(c2ccccc2)C1 (centres undefined) | -12 | -2 | . | -8 | -10 | -5 | 0 | i
Cc1cccc(N(C(=O)CNC(=O)c2ccco2)C(C(=O)NC2CCCC2)c2cccnc2)c1 (centres undefined) | -2 | 8 | -15 | -3 | 8 | -7 | . | i
CCOC(=O)c1cc(C#N)c(Oc2ccccc2OC)nc1-c1ccccc1 | -6 | . | -9 | -6 | -17 | -11 | . | i
COc1ccc(OC)c(S(=O)(=O)NCCCN2CCOCC2)c1 | . | 8 | -4 | 2 | 3 | . | . | .
Remaining list, next part.
SMILES | PABP polyA inh | CSC inhib | Yeast UUG start | MT1-MMP act inh | MT1-MMP act inh RFP | eIF4H inh | Env fusion inh | Rce1 inhib | others
COc1ccc(C)cc1N(CC(=O)NCCN1CCOCC1)S(=O)(=O)c1ccccc1 | . | -8 | . | 2 | 4 | . | 15 | i
O=C(COc1ccc([N+](=O)[O-])cc1)Nn1cnnc1 | -10 | -2 | . | 2 | 5 | -1 | -4 | i
O=C(Nc1ccc2nsnc2c1)NC1CCCCC1 | -4 | -12 | -26 | 3 | 3 | -13 | . | i
C[C@H](NC(=O)c1nc[nH]c1C(=O)NC1CCN(C(=O)OC(C)(C)C)CC1)C(=O)OCc1ccccc1 | 14 | . | 9 | 1 | 4 | 6 | -29 | i
CC1CCN(c2nc(Cl)nc(Nc3ccc([N+](=O)[O-])cc3)n2)CC1 | 15 | ? | . | -3 | -7 | -2 | -6 | i
O=c1n(Cc2ccccc2Cl)nc2n1-c1ccccc1SC2 | 1 | -1 | . | 7 | 2 | 2 | -59 | i

Compound activity from PubChem BioAssay.

Only part of the results is shown; count on the stated rates, not on these rows.
